# GIV-Gai inh: inhibitors of GIV GBA-motif binding to rat Galpha-i3; Galpha-i3/FITC-GIV peptide fluorescence polarization, 90 min; stronger effect = lower value; scaled: aluminum fluoride 0%, vehicle 100%; P08753; percent of control (FP), % (concentration not given with the values); 210,000 compounds, 0.42% hits;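 active = replicate mean at 85% of control or lower, very high polarization wells dropped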;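 also: wells of about 15 µL received 100 nL stock; the first replicate is given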
# Target sequence (P08753 whole entry, looked up): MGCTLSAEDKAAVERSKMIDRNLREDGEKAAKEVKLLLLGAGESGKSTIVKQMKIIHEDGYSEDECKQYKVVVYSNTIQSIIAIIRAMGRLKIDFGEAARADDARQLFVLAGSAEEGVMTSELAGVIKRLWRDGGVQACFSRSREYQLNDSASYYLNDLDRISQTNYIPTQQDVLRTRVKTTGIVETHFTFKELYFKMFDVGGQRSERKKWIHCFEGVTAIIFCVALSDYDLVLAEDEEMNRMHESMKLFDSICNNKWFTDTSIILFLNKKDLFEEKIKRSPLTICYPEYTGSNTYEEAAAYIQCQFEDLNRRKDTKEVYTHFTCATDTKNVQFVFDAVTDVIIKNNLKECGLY
# Active calls of the source: *.
# Start of the data: the first 4 entries (preview)
SMILES,GIV-Gai inh
Cc1nn(CC(=O)N2CCCC2)c(C)c1S(=O)(=O)N1CCC(C(=O)NC2CCCC2)CC1,105
CCN(CC)S(=O)(=O)c1ccc2nc(NCc3cc(F)cc(F)c3)cnc2c1,101
N#Cc1cc2c(N)c(C(=O)Nc3ccccc3C(F)(F)F)sc2nc1N,109
Cc1ccc2c(=O)c(-c3nc(-c4ccccc4C)no3)cn(CC(=O)Nc3ccc(C(N)=O)cc3)c2n1,127

# Results, from the first entry:
SMILES,GIV-Gai inh
Cc1nn(CC(=O)N2CCCC2)c(C)c1S(=O)(=O)N1CCC(C(=O)NC2CCCC2)CC1,105
CCN(CC)S(=O)(=O)c1ccc2nc(NCc3cc(F)cc(F)c3)cnc2c1,101
N#Cc1cc2c(N)c(C(=O)Nc3ccccc3C(F)(F)F)sc2nc1N,109
Cc1ccc2c(=O)c(-c3nc(-c4ccccc4C)no3)cn(CC(=O)Nc3ccc(C(N)=O)cc3)c2n1,127
Cc1cc(-n2c(C)nc3ccccc3c2=O)ccc1NC(=O)CCC1CCCC1,105
CCc1ccc(S(=O)(=O)N2CCCC2c2cc(C)no2)cc1 (configuration not stated),101
CCOCCn1cnc2sc(C(=O)NCCOC)c(C)c2c1=O,106
COC(=O)c1cccc(Nc2nc(-c3ccccc3O)nc3ccccc23)c1,110
COc1ccc(NC(=O)Nc2nnc(SCC(=O)NC3CCCC3)s2)cc1,96
O=C1/C(=C/c2ccccn2)SC(=Nc2ccccc2)N1c1ccccc1,105
CCOC(=O)c1sc2nc3c(c(-c4ccc(Cl)cc4)c2c1N)CCC3,109
Cc1ccc(-n2nc(C(=O)Nc3nc(C)cs3)c3ncn(C)c(=O)c32)cc1,105
Cc1ccc(CNS(=O)(=O)c2ccc(F)c(C(=O)Nc3c(F)cc(F)cc3Br)c2)cc1,117
Cc1nc(-c2cc(S(=O)(=O)NCCCN3CCC(C)CC3)c(C)s2)sc1C,102
O=C1CSC2(C(=O)Nc3ccccc32)N1c1ccc(F)cc1 (configuration not stated),107
COc1ccccc1Oc1ccc(C(F)(F)F)cc1NC(=O)Cn1nc([N+](=O)[O-])cc1C,105
O=C(CN1C2=NCCN2c2ccccc21)c1ccc2c(c1)OCO2,100
O=C(Oc1ccc(C2(c3ccc(OC(=O)c4ccc(F)cc4)cc3)c3ccccc3-c3ccccc32)cc1)c1ccc(F)cc1,110
CCOC(=O)C1=NN(c2ccc(Br)cc2)C2(S1)SC(c1ccc(Br)cc1)(c1ccc(Br)cc1)c1ccccc12 (configuration not stated),106
COc1ccc(S(=O)(=O)Cc2nc(-c3ccc4c(c3)OCO4)no2)cc1OC,108

# Some of the entries so far, bar-delimited:
compound | GIV-Gai inh
COc1ccccc1Oc1ccc(C(F)(F)F)cc1NC(=O)Cn1nc([N+](=O)[O-])cc1C | 105
O=C(CN1C2=NCCN2c2ccccc21)c1ccc2c(c1)OCO2 | 100

# Following part
SMILES,GIV-Gai inh
CCOc1ccccc1NC(=O)c1cc([N+](=O)[O-])ccc1N1CCN(Cc2ccccc2)CC1,107
CCCOc1ccc(NC(=O)C2CC(=O)N(C)C(=Nc3ccc(OC)cc3)S2)cc1 (configuration not stated),112
CC1CCCCN1CCNC(=O)CC1CCN(S(=O)(=O)c2cccs2)CC1 (configuration not stated),104
CCCc1cc(Sc2ccc(NC(=O)CC(C)C)cc2)n2ncnc2n1,104
CN(CCCC(=O)O)S(=O)(=O)c1ccc2c(c1)Cc1cc(S(=O)(=O)N(C)CCCC(=O)O)ccc1-2,83*
Cc1cc(N2CCOCC2)n2nc(CN3CCN(c4ccccn4)CC3)nc2n1,97
CCOC(=O)c1c(CSc2nc(C)c(C)c(C)c2C#N)n(C)c2cc(Br)c(OC(C)=O)cc12,111
CCOc1ccc(-c2noc(Cc3nc(-c4ccccc4Cl)cs3)n2)cc1,109
CCNC(=O)N1CCC(c2nc(C)cs2)CC1,101
Cc1ccc(NC(=O)CSc2nc3ccccc3c(=O)n2CCC(=O)NC2CCCCC2)cc1,102
COC(=O)c1sc2ccc(NC(=O)NCc3cccc(OC)c3)cc2c1OC,96
Cc1cc(C)c(C2=NON3N(C(=O)c4ccccc4)c4ccccc4N23)c(C)c1,123
COC(=O)C1=C(C(=O)OC)SC(=C2C(=S)C(C)(C)N(C(=O)C3CC3)c3ccccc32)S1,121
N#CC1(C#N)C(c2ccccc2)C(C(=O)Oc2cccc(Cl)c2)N2c3ccccc3C=CC21 (configuration not stated),109
O=C(NCCCn1ccnc1)c1cc2nc(-c3ccc4c(c3)OCO4)cc(C(F)(F)F)n2n1,112
CC1(C)CC(=O)c2cc(-c3ccc(Br)cc3)n(CC(=O)OCC(=O)c3ccc(Br)cc3)c2C1,106
O=C(C1Cc2ccccc2CN1S(=O)(=O)c1ccccc1)N1CCN(c2cccc(Cl)c2)CC1 (configuration not stated),101
CC(C)CCn1nc2c(S(=O)(=O)N3CCCCCC3)cccn2c1=O,109
CSc1ccc(N2C=NS(=O)(=O)c3cccnc32)cc1,109
COC(=O)COc1ccc2c3c(c(=O)oc2c1)CCCC3,108
CCOC(=O)C1CCCN(C(=O)c2sc3ncnc(N4CCN(c5ccccc5)CC4)c3c2C)C1 (configuration not stated),103
Cc1ccc(C)c(NS(=O)(=O)c2cc(-c3nc(C(C)(C)C)cs3)cs2)c1,107
Cn1c2c(c(=O)n(C)c1=O)C(c1cc([N+](=O)[O-])ccc1O)C1=C(N2)c2ccccc2C1=O (configuration not stated),104
O=C(c1cccc(N2C(=O)C3C4C=CC(C4)C3C2=O)c1)N1CCC(Cc2ccccc2)CC1 (configuration not stated),101
Cc1cc(N2CCN(C)CC2)nc(N2CCN(C(=O)c3ccc(C(C)(C)C)cc3)CC2)n1,106
O=C(CSc1nc(NCC2CCCO2)c2ccccc2n1)NC1CCCCC1 (configuration not stated),113
O=C(C1CCC1)N1CCc2sc(S(=O)(=O)NCc3ccc4c(c3)OCO4)cc2C1,101
Cc1ccc([N+](=O)[O-])cc1NC(=O)C1CC(O)CN1C(=O)Oc1ccccc1 (configuration not stated),103
CCN1CCCC1CNC(=O)c1nn(-c2cc(OC)cc(OC)c2)c(=O)c2ccccc12 (configuration not stated),101
Cc1cc(NC(=O)CCc2nc(CSc3nc(-c4ccccc4C)cs3)no2)no1,102
COc1ccc(Cc2nc(-c3ccc(NC(=O)c4cccs4)cc3)no2)cc1,100
COc1cc(NS(=O)(=O)c2c(C)nn(-c3ccc(-c4ccc(C)cc4)nn3)c2C)cc(OC)c1,104
S=C1NC2(CCCC2)Nc2sc3c(c21)CCCC3,118
CC1=C(C(=O)N2CCCCC2)C(c2ccc(O)c([N+](=O)[O-])c2)C2=C(CCCC2=O)N1 (configuration not stated),97
COc1ccc(N2CC(O)(c3ccccc3)[N+]3=C2SCCC3)cc1 (configuration not stated),110
Cc1cccc(N2C(=O)/C(=C/c3ccc(-c4ccc(Br)cc4)o3)C=C2c2ccccc2)c1,116
CNC(=O)c1nc(C(C)(C)NC(=O)c2cnccn2)nc2c1OCO2,95
O=c1/c(=C\c2ccc(F)cc2)sc2nc3cc(Br)cnc3n12,99
C=CCNC(=O)C1CCN(Cc2noc(-c3ccc(F)cc3)n2)CC1,102
CCCCCC1(C(=O)OCC)CC(CSc2nc3ccccc3[nH]2)OC1=O (configuration not stated),110
COc1cc(NS(=O)(=O)c2ccc(-n3c(=S)[nH]c4ccc(Cl)cc4c3=O)cc2)nc(OC)n1,115
CC1CC2(CC(C)OC2=O)C(=O)O1 (configuration not stated),115
Cc1[nH]nc2c1C(C(=O)c1cccc(Cl)c1)CC(=O)N2 (configuration not stated),97
CCOc1ccccc1N1C(=O)C2C(c3ccc(C)cc3)OC3(C(=O)c4ccccc4C3=O)C2C1=O (configuration not stated),108
Nc1ncnc2nc(Sc3ccc([N+](=O)[O-])cc3[N+](=O)[O-])[nH]c12,100
CCC(C)NC(=O)N1CCNC(=O)C1 (configuration not stated),97
COc1cc(/C=C2N=C(/C=C/c3cccc(Cl)c3Cl)OC\2=O)cc(OC)c1OC,108
Cc1ccc(C(=O)N2CCC(Nc3ncnc4c3CCC4)CC2)s1,108
Cc1ccc2c(c1)-c1c(ssc1=S)C(C)(C)N2C(=O)CN1C(=O)CCC1=O,107
CCOC(=O)COc1cc(Br)c(C2Nc3ccc4ccccc4c3C3=C2C(=O)CC(C)(C)C3)cc1OC (configuration not stated),108
O=C1C(=O)N(CCO)C(c2ccccc2)/C1=C(/O)c1ccc(Br)cc1 (configuration not stated),99
COC(=O)CNC(=O)Nc1c(-c2cccnc2)[nH]c2ccccc12,103
O=C(c1ccc2c(c1)OCCCO2)N1CCCC1,101
CCOC(=O)N1CCN(C(=O)c2ccc3c(=O)n(-c4cc(OC)ccc4OC)c(=S)[nH]c3c2)CC1,105
Cc1c(S(=O)(=O)N2CCCCC2C)cc(-c2nc(-c3cccc(Cl)c3)cs2)n1C (configuration not stated),106
O=C(COc1ccccc1F)Nc1cccc(OCc2cc(=O)n3ccccc3n2)c1,108
COc1cc(NC(=O)c2sc3nc(C)nc(N4CCN(c5ccccn5)CC4)c3c2C)cc(OC)c1OC,104
COc1ccc(-c2noc(CCc3nnc4ccc(N5CCN(c6ccccn6)CC5)nn34)n2)cc1,101
Cc1csc(-c2cc(S(=O)(=O)NCC3CCCO3)cn2CC(=O)N2CCCCC2)n1 (configuration not stated),103
N#Cc1c2c(c(N3CCN(C(c4ccccc4)c4ccccc4)CC3)n3c1nc1ccccc13)CCC2,107
# Additional structures.
SMILES,GIV-Gai inh
COc1cc(C2Nc3ccc(Cl)cc3C(c3ccccc3)O2)cc(Br)c1OC (configuration not stated),111
CC(C)(C)C1C/C(=C\c2cccc(Br)c2)C(=O)/C(=C/c2cccc(Br)c2)C1 (configuration not stated),108
COCCn1c(SCc2nc(-c3ccc(F)cc3)no2)nc2cc3c(cc2c1=O)OCO3,108
CCCCCn1c(SCC(=O)N2CCCC2)nc2cc(C(=O)N3CCC(C(N)=O)CC3)ccc2c1=O,111
CC(C)(C)NS(=O)(=O)c1ccc2c(c1)C(=NO)c1cc(S(=O)(=O)NC(C)(C)C)ccc1-2,119
CC12c3ccccc3C(C)(c3ccccc31)C1C(=O)N(c3ccc(C(=O)O)cc3)C(=O)C12 (configuration not stated),107
C=CCSc1nnc(-c2ccncc2)n1-c1ccccc1,113
COc1cc(/C=C2N=C(/C=C/c3ccc(Cl)cc3Cl)OC\2=O)cc(OC)c1OC,106
Cn1c(=O)n(Cc2ccncc2)c(=O)c2cnc(-c3cccnc3)nc21,108
O=C(Nc1ccc(Oc2ccc(Cl)cc2)c(Cl)c1)c1cc(Br)cc(Br)c1O,112
COc1ccc(Br)cc1C1Nc2ccc3ncccc3c2C2=C1C(=O)CC(C)(C)C2 (configuration not stated),107
CC1=C(C(=O)OC2CCCCC2)C(c2ccc(Cl)c(Cl)c2)CC(=O)N1 (configuration not stated),102
CCn1cnc2cc(-c3noc(CN4C(=O)COc5ccccc54)n3)ccc21,99
COC(=O)c1ccc2c(=O)n(-c3cc(F)cc(F)c3)c(N3CCOCC3)nc2c1,101
CC(=O)N1c2ccccc2N=C(c2ccc(Br)cc2)CC1c1ccccc1 (configuration not stated),114
COc1cc(C2/C(=C(/O)c3ccc(F)cc3)C(=O)C(=O)N2c2nncs2)ccc1O (configuration not stated),101
COc1ccc(Cn2nnc3cc(C(=O)NCc4ccccc4OC)ccc32)cc1,112
O=C1/C(=C/c2ccc(-c3ccc(Br)cc3)o2)C=C(c2ccccc2)N1c1ccc(Sc2ccc([N+](=O)[O-])cc2)cc1,116
COc1ccc(CNc2nc(SCC#N)nc3ccccc23)cc1,109
O=S(=O)(NCCc1nc(-c2ccc(Cl)cc2)n[nH]1)c1cccc2nsnc12,105
Cn1c(=O)c2c(nc(N3CCN(Cc4ccc5c(c4)OCO5)CC3)n2CC(=O)c2ccc(Br)cc2)n(C)c1=O,106
COc1ccc(C2C=C(Nc3ccccc3)C(=O)N2c2ccccc2)cc1OC (configuration not stated),109
O=C(C(=O)N1CCCc2ccccc21)c1ccc[nH]1,105
COc1cc(C2Nc3ccc(Cl)cc3[C@H]3OCC[C@@H]23)cc(OC)c1OC (some centres not stated),98
O=C(Nc1nc(-c2cccc([N+](=O)[O-])c2)cs1)c1cc2cc(Br)ccc2oc1=O,118
O=C(Nc1cnc(N2CCN(c3ccccc3)CC2)c(C(=O)O)c1)c1ccccc1Cl,108
FC(F)(F)c1cccc(NC2=NC(=S)N(c3cccc(Cl)c3)C23CCCCC3)c1,117
COc1ccc(CNS(=O)(=O)c2c(C)sc(C)c2-c2cc(C(F)(F)F)on2)cc1,107
COc1ccc2ccccc2c1C1N(c2ccccc2)CCN1c1ccccc1,113
COc1ccc(C(O)(C(=O)NN(C(=O)c2csc(C)c2)c2ccccc2)c2ccc(OC)cc2)cc1,110
O=C(CSc1nnc(-c2ccncc2)n1-c1ccccc1)c1c[nH]c2ccccc12,100
Cc1ccc(-c2nc(CN3CCCC(C(=O)NCC(C)C)C3)no2)cc1 (configuration not stated),108
Cc1cc(Sc2ccc(N)cc2)n2nc(C)nc2n1,100
CCOC(=O)C1=C(C)NC2=C(C(=O)C(C(=O)OCC)C(c3cccc(OC)c3)C2)C1c1ccc(OCC)cc1 (configuration not stated),97
Cc1cccc(C(=O)N2N=C(C(F)(F)F)CC2(O)c2ccc(Br)cc2)c1 (configuration not stated),111
COc1ccc(N2C(=S)N=C(Nc3cccc(Cl)c3)C23CCC(C)CC3)cc1 (configuration not stated),107

# Taken from above:
# `CCOC(=O)N1CCN(C(=O)c2ccc3c(=O)n(-c4cc(OC)ccc4OC)c(=S)[nH]c3c2)CC1` | GIV-Gai inh = 105
# `Cn1c(=O)n(Cc2ccncc2)c(=O)c2cnc(-c3cccnc3)nc21` | GIV-Gai inh = 108
# `CC1=C(C(=O)OC2CCCCC2)C(c2ccc(Cl)c(Cl)c2)CC(=O)N1` (configuration not stated) | GIV-Gai inh = 102

# Filtered by structure, those above containing a COOH group.
SMILES,GIV-Gai inh
CN(CCCC(=O)O)S(=O)(=O)c1ccc2c(c1)Cc1cc(S(=O)(=O)N(C)CCCC(=O)O)ccc1-2,83*
CC12c3ccccc3C(C)(c3ccccc31)C1C(=O)N(c3ccc(C(=O)O)cc3)C(=O)C12 (configuration not stated),107
O=C(Nc1cnc(N2CCN(c3ccccc3)CC2)c(C(=O)O)c1)c1ccccc1Cl,108

# The list is partial. The share of hits here may be higher or lower than overall.
